Bioassay records deposited in PubChem BioAssay by several laboratories.
A1 inh: inhibitors of the anti-apoptotic protein A1, read as caspase activation; MEF A1-2A-BIM cells, Caspase-Glo 3/7 luminescence, 3 h; percent of clofoctol response, vehicle zero; caspase activation, % (concentration not given with the values); actives 0.066% (n = 330,000); AID 2462;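 active = over half of replicate activation scores above 10%, or exactly half above 10 with the replicate mean above 10; inconclusive = replicate mean below 10 yet half the replicates above 10; inactive = over half of replicates below 10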;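 also: wells of about 30 µL received 50 nL stock; many hits fall short of the cut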
rRNA inh HTS: selective bacterial rRNA inhibition in E. coli. actives 1.6% (n = 350,000). E. coli WT GFP vs humanized-ribosome RFP mutants, fluorescence, 24 h; active compounds read low; DMSO median 0, no signal -100. AID 720706. GFP signal change (wild-type ribosome), % (test concentration not listed);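 active = significant combined selectivity score with lowered wild-type GFP, culture density cut under 30%, mutant RFP and density less affected; inactive = any of these conditions unmet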; also: one replicate is shown; some compounds called inactive have numbers as strong as hits
Beta apoptosis: blocks beta cell apoptosis; INS-1E cytokine-induced death, ATP luminescence, 48 h; percent of positive-control rescue, neutral wells zero; protection from apoptosis, % (test concentration not listed); actives 0.8% (n = 300,000); AID 435005;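 active = all replicates at 75% or more, or half of them and the mean; inconclusive = half reach 75% but not the mean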;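 also: 0% = cytokine-treated negative control wells and 100% = positive control rescue; higher means more ATP so stronger rescue from cytokine killing; wells of about 40 µL received 100 nL stock; the first replicate is given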
LANA-H2A inh: blocks KSHV LANA binding to histone H2A/H2B | inhibition, % (concentration not given with the values) | Q9QR71 | actives 0.6% (n = 320,000) | cell-free LANA-H2A/H2B peptide, fluorescence polarization | AID 2629; in the data active = inhibition mostly above about 10%, no sharp cut-off; inactive = mostly below about 6.7%;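 also: stock transfer was 7.5 nL into about 10 µL; 0% = median of vehicle wells and 100% = median of positive control wells; one replicate is shown; the record names a cut of 25% in any replicate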
Calb FLC: C. albicans growth modulation with fluconazole | actives 0.57% (n = 300,000) | C. albicans CaCi-2 (fluconazole-resistant clinical isolate) + fluconazole, Alamar Blue growth, 48 h | growth inhibition, % (test concentration not listed);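 active = most replicates above 75%; inconclusive = exactly half above 75%; inactive = most below 75%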;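 also: all wells also contain fluconazole at 8 µg/ml as a sub-toxic cotreatment; 0% = median of DMSO wells and 100% = median of geldanamycin control wells; wells of about 8 µL received 7.5 nL stock; the first replicate is given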
ALR H2O2 inh: human ALR oxidase inhibition via reduced H2O2; inhibition, % (test concentration not listed); actives 3.8% (n = 290,000); purified ALR, DTT oxidation, H2O2 HRP-luminol luminescence; AID 485317; P55789;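 active = mean and each replicate at 75% or more; inconclusive = only one of the two met; inactive = neither met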;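 also: stock transfer was 7.5 nL into about 7.5 µL; 0% = neutral wells and 100% = wells with inactivated enzyme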
Target sequence (P55789 whole entry, looked up): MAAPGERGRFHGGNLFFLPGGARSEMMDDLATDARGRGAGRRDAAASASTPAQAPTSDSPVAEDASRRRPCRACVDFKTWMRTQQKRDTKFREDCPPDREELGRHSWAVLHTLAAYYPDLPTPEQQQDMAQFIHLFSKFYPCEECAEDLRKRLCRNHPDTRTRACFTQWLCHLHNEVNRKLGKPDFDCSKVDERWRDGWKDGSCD
T cruzi inh: T. cruzi replication inhibition | inhibition, % (concentration not given with the values) | AID 1885 | actives 1.4% (n = 300,000) | T. cruzi beta-gal in NIH3T3, luminescence, 90 h;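 active = mean inhibition across valid replicates above about 55%, limit read from the data; inconclusive = mean below that limit but half or more replicates reach it; inactive = mean below it, under half of replicates reach it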;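 also: signal also drops with host cell toxicity which is not excluded here; 0% = plate median of DMSO wells and 100% = zero luminescence signal; higher percent means less beta-gal luminescence so fewer parasites; stock transfer was 50 nL into about 50 µL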
Beta2AR agonist: activates human beta-2 adrenergic receptor causing internalization. P07550. Am2.2-beta2AR cells, FAP receptor internalization, flow cytometry; reference of the scale not given here. response, % (test concentration not listed). actives 0.43% (n = 340,000). AID 504454;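 active = response above a set limit, near 3 SD of response in nonfluorescent compounds, cut at about 42% in these data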;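 also: stock transfer was 100 nL into about 11 µL; a reference agonist was the positive control; negative values mostly stem from fluorescent compounds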
Target sequence (P07550 whole entry, looked up): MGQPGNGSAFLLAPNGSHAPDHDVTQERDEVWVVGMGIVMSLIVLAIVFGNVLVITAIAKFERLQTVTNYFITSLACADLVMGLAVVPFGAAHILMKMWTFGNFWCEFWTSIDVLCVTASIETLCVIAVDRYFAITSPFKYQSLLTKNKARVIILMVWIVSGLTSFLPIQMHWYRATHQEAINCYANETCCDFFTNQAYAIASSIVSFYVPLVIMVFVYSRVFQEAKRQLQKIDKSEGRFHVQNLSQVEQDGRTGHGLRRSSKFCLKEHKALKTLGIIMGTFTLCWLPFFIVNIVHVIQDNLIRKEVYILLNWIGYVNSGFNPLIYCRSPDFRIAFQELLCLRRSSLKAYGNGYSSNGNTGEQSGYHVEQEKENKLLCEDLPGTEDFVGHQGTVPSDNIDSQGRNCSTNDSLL
rRNA inh HTS OD600: second read-out of rRNA inh HTS, no call of its own (marks repeat the call); OD600 change, %; measured here: OD600 growth;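 optical density of the mix in the first replicate; 0 = DMSO median and -100 = no signal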
rRNA inh HTS RFP: further read-out of rRNA inh HTS, marked with its call; RFP signal change, %; measured here: RFP humanized mutant strains;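 first replicate; 0 = DMSO median and -100 = no signal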
An asterisk follows results filed as active; ? = inconclusive; · = not tested or not shown.

SMILES	A1 inh	rRNA inh HTS	rRNA inh HTS OD600	rRNA inh HTS RFP	Beta apoptosis	LANA-H2A inh	Calb FLC	ALR H2O2 inh	T cruzi inh	Beta2AR agonist
O=C(CCCN1C(=O)c2ccccc2C1=O)Nc1ccc(S(=O)(=O)N2CCOCC2)cc1	0.7	·	·	·	-1	-0.7	-5	-2	-12	-4
O=C(COC(=O)c1ccccc1O)NC1CCCc2ccccc21 (centres undefined)	0.4	·	·	·	1	-1.1	·	·	·	2
NS(=O)(=O)c1ccc(NC(=O)CN2C(=O)C3C4C=CC(C4)C3C2=O)cc1 (centres undefined)	-0.2	20	12	-5.5	-4	-0.8	-11	-3	-20	3
Fc1ccc2c(c1)C(c1ccc(N3CCOCC3)cc1)=NNC(c1cccs1)=N2	-1.1	7	6	2.1	0	0.6	?	3	1	-11
O=C(O)c1ccc2c(=O)n3c(nc2c1)/C(=C/c1ccc(OC(F)F)cc1OC(F)F)CC3	1.3	11	1	0.1	-3	0.3	-5	0	-6	0
COc1ccc(C2=NN(C(=O)c3cccnc3)C(c3ccccc3)C2)cc1 (centres undefined)	-0.3	-23*	3.3*	3.5*	-24	-4.1	0	-14	3	-7
COc1cccc(OC)c1C(=O)OCC(=O)N(C)c1ccccc1	0.2	0	3	0.7	-1	-3.0	-1	2	-7	-3
Cc1cc(C)nc(SSc2nc(C)cc(C)n2)n1	0.6	15	10	4.6	-1	4.8	4	·	5	3
CN1CCN(C(=O)C23CC4CC(CC(C4)C2)C3)CC1	0.8	·	·	·	1	-3.2	-5	0	-1	·
Cc1cnc(C(=O)OCc2ccc(C#N)cc2)cn1	0.6	11	4	0.6	-6	-0.6	-1	4	-9	-4
O=C(Cc1c(F)cccc1Cl)Nc1cccnc1	0.7	5	5	-10	·	-2.2	12	-5	-11	-2
CCOC(=O)C1=C(C)NC(=O)N(C(C)=O)C1c1ccc(Cl)cc1 (centres undefined)	0.7	·	·	·	-2	0.9	0	1	6	0
O=C(NOC(=O)c1ccccc1F)c1ccc(OC(F)F)cc1	0.4	14	15	0.6	2	-6.6	-1	-12	11	9
c1ccc2oc(-c3ccc4nc[nH]c4c3)nc2c1	-8.6	·	·	·	3	-2.6	4	-2	24	-4
COc1ccc(NC(=O)COC(=O)c2ccc3c(c2)OCCO3)cc1OC	-1.8	7	12	-1.7	-7	-2.3	·	-8	·	-2
C[C@@H](NC(=O)Cn1cnc2c(OCc3ccccc3)ncnc21)c1cccc2ccccc12	0.0	10	6	0.6	2	1.8	·	·	·	0
O=C(CCN1C(=O)/C(=C\c2cccs2)SC1=S)Nc1ccc(C(=O)O)cc1	1.6	-11	-10	-3.2	-2	-13	2	·	-41	2
CCOc1ccc(C(CC(=O)O)NC(=O)c2sc3ccccc3c2Cl)cc1 (centres undefined)	0.6	-15	-41	-8.1	-3	4.3	20	-5	-18	14
Cc1csc(SCC(=O)Nc2cc(S(=O)(=O)N3CCCC3)ccc2Cl)n1	0.3	·	·	·	0	2.6	0	-9	16	3
CC1CCN(S(=O)(=O)N2CCC(C(=O)O)CC2)CC1	-0.9	·	·	·	0	-0.2	0	-4	-25	3
C[C@@]12C(=O)N(Cc3ccccc3)CC(=O)N1[C@H]1c3ccccc3OC[C@@H]1[C@@H]2c1ccccc1	-1.1	-2	-3	5.3	9	2.0	·	-1	·	-7
Cc1nn(C)c(C(=O)N/N=C/c2cccc(Oc3ccccc3)c2)c1Br	0.6	3	9	4.1	·	-2.9	-1	-11	2	-22
Cc1cc(N2CCOCC2)nc2ccc(NC(=O)CCC(=O)N3CCN(c4ccc(F)cc4)CC3)cc12	0.0	-10	-10	4.7	7	-2.3	-4	5	6	10
COc1ccc(-c2csc(Nc3ccc(S(=O)(=O)Nc4cc(OC)nc(OC)n4)cc3)n2)cc1	-0.7	·	·	·	-3	-3.4	50	21	-7	4
COc1ccc(NC(=S)N(CCC(C)C)C2CCN(C(C)C)CC2)cc1Cl	0.9	-1	-5	1.3	-7	-5.8	-5	-9	1	7
Going on with the list.
SMILES	A1 inh	rRNA inh HTS	rRNA inh HTS OD600	rRNA inh HTS RFP	Beta apoptosis	LANA-H2A inh	Calb FLC	ALR H2O2 inh	T cruzi inh	Beta2AR agonist
COc1cccc(C(=O)C2CCCN(C/C=C/c3ccccc3OC)C2)c1 (centres undefined)	-3.1	-29*	-11*	-3.8*	3	2.7	-28	-9	52	9
C=Cn1cc[n+](CC(=O)c2ccc(OC)cc2)c1	1.2	6	9	-5.0	3	-0.2	9	2	3	6
O=C(Nc1ccc(F)cc1F)c1c(C(F)(F)F)ccnc1Oc1cccc(C(F)(F)F)c1	0.3	-1	0	-4.5	-6	-1.9	0	·	23	-8
O=C(CCN1C(=O)S/C(=C\c2cccs2)C1=O)Nc1nccs1	-0.5	1	0	-4.8	-4	0.3	11	6	-13	6
COc1ccc(OCC(=O)Nc2cc3oc4ccccc4c3cc2OC)cc1	-0.1	·	·	·	7	-7.5	-6	-4	3	-7
NC(=O)C1=C[C@@H](c2coc3ccccc3c2=O)C[C@@H](OCc2ccc(CO)cc2)O1	0.1	-8	4	4.5	·	0.2	2	-2	1	-18
COc1ccc(CCC(=O)Nc2ccc(C)c(S(=O)(=O)N(C)C)c2)cc1OC	-0.7	·	·	·	2	2.4	1	·	-22	2
CCN1CCN(C(c2cccs2)C(C)NC(=S)Nc2cc(C)ccc2C)CC1 (centres undefined)	1.4	0	1	-2.4	-2	-3.7	-12	4	15	-5
O=C(COC(=O)c1nn(-c2ccccc2)c(=O)c2ccccc12)NC1CCS(=O)(=O)C1 (centres undefined)	0.1	·	·	·	-10	-8.7	1	-3	-17	-2
COc1cc2c(cc1OC)CN(c1ccc(C(F)(F)F)cn1)CC2	0.7	-52	-71	-20	3	0.7	50	·	2	-6
O=C(COC(=O)Cc1c(F)cccc1Cl)NCCC1=CCCCC1	0.2	·	·	·	-1	-0.7	-2	-3	-6	-6
COc1ccc(CC(C)N2CCN(c3ccccc3OC)CC2)cc1OC (centres undefined)	-0.2	·	·	·	2	-1.9	?	-5	11	4
COc1cc(NC(=O)COC(=O)[C@@H]2CCCN2S(=O)(=O)c2ccc(Cl)cc2)cc(OC)c1OC	-0.2	·	·	·	-2	-0.2	-1	0	-12	9
CCOc1ccc(NC(=O)c2ccccc2OCC(=O)c2ccccc2)cc1	0.0	·	·	·	·	0.0	2	-1	30	-5
CCNc1nc(SC(C)C(=O)OC)nc(N2CCOCC2)n1 (centres undefined)	1.2	·	·	·	0	-5.9	3	-3	-1	10
CSc1nc(C)c2c(n1)N(c1ccc(O)cc1)CC2	0.0	9	-6	-0.1	4	6.6	-2	-11	-7	-10
CN1C(=O)NC(c2ccccc2)C2=C1CN(c1ccc3ccccc3c1)C2=O (centres undefined)	-0.5	·	·	·	-5	2.9	-1	-36	9	-5
CCn1cc(C2=NOC(C(=O)Nc3ccc4c(c3)OCO4)C2)c(C)n1 (centres undefined)	1.5	·	·	·	0	5.5	16	1	-10	-14
O=C(COc1ccc(S(=O)(=O)NC2CCCCC2)cc1)NCc1ccccn1	0.0	·	·	·	-5	12	6	-6	-6	11
COc1ccc(-c2nnc(SCC(=O)N3CCc4ccccc4C3)o2)cc1	-0.3	·	·	·	-7	2.3	26	-6	5	-9
Cc1ccc(-c2noc(CCC(=O)NC3CCCC3)n2)cc1	0.0	4	3	-1.0	-20	-1.1	-1	·	7	32
Nc1ncccc1OCc1ccc(Br)cc1	-4.9	-11	-12	1.2	6	·	31	·	-1	-9
CCCCC(=O)NC(c1ccc(N(C)C)cc1)c1ccc2cccnc2c1O (centres undefined)	-0.1	-14	-18	1.3	94*	0.6	94*	60	57*	5
CCOc1ccccc1C1C(C(=O)Nc2ccccc2OC)=C(C)Nc2nnnn21 (centres undefined)	-0.1	·	·	·	-3	-3.8	22	-7	5	-4
CC(=O)N1CCOc2ccc(S(=O)(=O)N3CCC(C(=O)NCc4ccc(F)cc4)CC3)cc21	1.0	3	12	0.2	1	-3.6	-17	8	2	7
The results go on:
SMILES	A1 inh	rRNA inh HTS	rRNA inh HTS OD600	rRNA inh HTS RFP	Beta apoptosis	LANA-H2A inh	Calb FLC	ALR H2O2 inh	T cruzi inh	Beta2AR agonist
NS(=O)(=O)c1cc(C(=O)OCC(=O)Nc2ccc3[nH]c(=O)[nH]c3c2)ccc1Cl	0.5	0	9	-2.0	-5	2.5	·	-2	·	-9
Cn1c(N)c(C(=O)COC(=O)Cc2ccsc2)c(=O)n(C)c1=O	0.0	·	·	·	-2	-0.4	-2	-1	0	2
COC(=O)c1cc(C(=O)Nc2ccc(S(=O)(=O)NC(C)(C)C)cc2)cc([N+](=O)[O-])c1	-1.8	·	·	·	-2	3.8	-21	-9	56*	-3
CC(C)(C)c1ccc(-c2noc(CNC(=O)c3ccco3)n2)cc1	-0.4	1	-15	2.8	0	1.5	8	4	5	3
C=CCn1c(COc2ccc(Cl)cc2)nnc1SCC(=O)N/N=C/c1cccc(O)c1	1.5	·	·	·	-6	-6.2	-21	-7	12	3
Cc1ccc(OCC(=O)Nc2nnc(S(=O)(=O)N3CCC(C)CC3)s2)cc1	0.8	-3	7	6.7	-6	-6.0	-2	-6	4	8
CCOC(=O)c1c(O)c2ccccc2n(-c2ccccc2)c1=O	0.1	·	·	·	-4	2.6	-2	-10	·	0
CCCCCC(=O)Nc1ccc(C(=O)COC(=O)Cn2cnc3c2c(=O)n(C)c(=O)n3C)cc1	0.3	0	10	4.4	-11	-7.6	9	-2	-16	0
CC1=CC2=NC(=O)/C(=C\c3cccn3CCOc3ccccc3)C(=N)N2O1	0.6	-29	-40	-6.9	6	1.0	-10	0	-9	-11
c1ccc2c(c1)CNC1(CCCCC1)C2	-0.6	·	·	·	-1	-0.3	·	-20	-8	-6
COCCN(Cc1ccccc1)C(=O)c1ccc2c(=O)n3c(nc2c1)CCC3	0.8	5	10	3.0	1	-2.2	-2	-10	-9	1
CC(=O)c1c(C)[nH]c(C(=O)OCC(=O)Nc2cc(Cl)ccc2[N+](=O)[O-])c1C	-0.4	14	29	-0.2	40	1.8	9	·	20	-8
CC1CCc2c(sc(NC(=O)CCCn3cnc([N+](=O)[O-])n3)c2C(N)=O)C1 (centres undefined)	0.7	10	4	-4.4	-1	-4.0	-8	·	53	-9
COc1ccc(-c2cc(C(=O)N3CCN(c4ccccc4)CC3)no2)cc1	0.2	·	·	·	-10	-0.1	11	3	-3	0
C/C(=N\N=C(/N)c1nonc1N)c1ccc2c(c1)OCO2	-6.2	-1	12	2.2	5	-1.6	1	0	5	3
O=C(Nc1ccc2ccccc2c1)c1onc2c1CCCC2	-5.3	·	·	·	8	0.3	5	-14	3	0
Cc1c(Cl)cccc1NC(=S)NNc1ncc(C(F)(F)F)cc1Cl	0.6	·	·	·	32	1.6	-4	4	10	12
O=C(CC1Sc2ncnn2C1=O)Nc1ccccc1 (centres undefined)	1.9	10	12	-3.5	-4	-6.5	-6	6	16	13

A portion of the library; the hit share may differ from the screen's.
